# D2 ag: activates the human D2 dopamine receptor | P14416 | DiscoveRx PathHunter D2 beta-arrestin, luminescence, 90 min; 100% = 57 uM dopamine signal | activation, % (no concentration beside the values) | hit rate 0.084% among 360,000 | AID 624465; in the data active = activation above about 40%; inconclusive = about 15% to 40%; inactive = below about 15%; note: compound concentration not given in the record; the text of the record calls up to 30% inactive
# Target sequence (P14416 whole entry, looked up): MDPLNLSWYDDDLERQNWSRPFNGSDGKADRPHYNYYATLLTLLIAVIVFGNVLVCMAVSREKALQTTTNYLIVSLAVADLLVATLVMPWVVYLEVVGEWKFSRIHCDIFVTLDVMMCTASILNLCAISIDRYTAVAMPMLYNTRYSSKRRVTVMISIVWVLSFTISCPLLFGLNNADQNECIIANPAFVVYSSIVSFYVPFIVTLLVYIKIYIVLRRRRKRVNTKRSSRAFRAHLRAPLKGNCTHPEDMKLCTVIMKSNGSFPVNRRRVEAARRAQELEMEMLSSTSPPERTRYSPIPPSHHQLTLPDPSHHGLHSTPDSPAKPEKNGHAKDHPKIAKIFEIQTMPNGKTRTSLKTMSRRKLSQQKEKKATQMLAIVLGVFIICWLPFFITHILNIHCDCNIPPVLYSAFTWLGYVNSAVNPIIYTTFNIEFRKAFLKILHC
#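 Agonist mode: compounds alone added to overnight-plated D2 PathHunter cells for 90 min at 37 C, with 57 uM final dopamine (EC100) defining full response. Beta-arrestin recruitment detected by chemiluminescent reagent, read after 1 h at ambient temperature.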
# gsp ag: agonists of gsp mutant (McCune-Albright syndrome). gsp mutant cells, cAMP HTRF, 30 min; control for the full effect not named in the record. Potency, µM (titrated, usually from 76.9 µM), for the others: at the highest dose activation (cAMP increase), usual class: activators. hit rate 0.13% among 340,000; active = well fitted activation curve with a large enough effect; inconclusive = small, poorly fitted or top-dose-only effect, or another doubt; inactive = no such curve, though single readings can be large or run the other way; cell line not stated here;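 note: phosphodiesterase inhibitor Ro 20-1724 added with compounds to block cAMP breakdown; potency is the fitted concentration of half-maximal effect; nearly all actives have a fitted effect of over 60% in size; about a fifth of the inactives were tested at one dose only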
#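 Cells stably selected in G418 were plated at 2000/well, grown 16-24 hr, then given compounds in DMSO with the PDE inhibitor […] (300 uM solution added) for 30 min at 37C; cAMP was read by HTRF.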
# gsp antag: antagonists of gsp mutant (McCune-Albright syndrome). gsp-mutant cells, cAMP HTRF, 30 min; control for the full effect not named in the record. Potency, µM (doses to about 76.9 µM), inactives show top-dose activity change, negative = inhibition, most hits filed as inhibitors. hit rate 0.4% among 340,000. AID 624288; active = falling curve of any shape with a large fitted effect; inconclusive = falling curve, mostly with a smaller effect; inactive = flat or rising curve; cell line not stated here;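 note: intracellular cAMP measured with PDE inhibitor Ro 20-1724 present during compound exposure; potency is the fitted concentration of half-maximal effect; % is set by controls: 0 for no effect and ±100 for the full control effect; nearly all actives have a fitted effect of over 65% in size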
#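 G418-selected cells were plated in DMEM/10% FBS for 16-24 h at 37C, then treated with compounds plus the PDE inhibitor […] (300 uM solution added) for 30 min at 37C. Intracellular cAMP was measured by HTRF after 30 min lysis at room temperature.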
# Six1-Eya2 inh: inhibitors of human Six1/Eya2 interaction; Q15475+O00167; AlphaScreen GST-Six1/His-Eya2 binding, biochemical; stronger effect = lower value; control for the full effect not named in the record; activity change, % (test concentration not listed); hit rate 0.56% among 360,000; in the data active = activity change below about -65%; inconclusive = about -30% to -65%; inactive = above about -30%; note: % is set by controls: 0 for no effect and ±100 for the full control effect; compound concentration not given in the record
#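 Compounds are tested against tagged Six1 and Eya2 proteins bridged by glutathione donor and nickel acceptor beads; after a one-hour incubation at 37 °C without light, AlphaScreen emission is recorded.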
# D2 potentiator: human D2 receptor positive allosteric modulation | P14416 | DiscoveRx D2 beta-arrestin cells, luminescence, 90 min; 100% = 57 uM dopamine signal | potentiation, % (concentration not given with the values) | hit rate 0.23% among 360,000; active = potentiation of 50% or more; inconclusive = 30% to 50%; inactive = 30% or less;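 note: compound concentration not given in the record; tested on top of an EC20 dose of dopamine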
#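 PathHunter beta-arrestin assay in DiscoveRx D2 cells. Compounds were added with an EC20 of dopamine (50 nM final) for 90 min at 37 deg C. Luminescence was read 1 h after detection reagent, with 57 uM dopamine as the EC100 control.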
# CtBP-E1A blk: inhibitors of CtBP/E1A interaction | AlphaScreen GST-E1A/His-CtBP binding, 1536-well; stronger effect = lower value; control for the full effect not named in the record | activity change, % (no concentration beside the values) | hit rate 0.49% among 340,000 | AID 651724; in the data active means activity change below about -65%; inconclusive means about -30% to -65%; inactive means above about -30%; note: % is set by controls: 0 for no effect and ±100 for the full control effect; compound concentration not given in the record
#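 Steps: dispense buffer (Tris pH 8.0, NaCl 300 mM, TCEP 1 mM, BSA, Tween 20); add 5X protein mix (GST-E1A, His-CtBP, 125 nM each); pin 23 nL compound; 2 h at 37 °C, dark; add 5X beads (50 ug/mL); 1 h; read.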
# * hit, by the source's call; ? = inconclusive; . = not tested or not shown; [ ] = dose if it differs, or a comment. An unsorted share of the library. About 1.4% of those tested had a hit in this group.
cpd | structure | Six1-Eya2 inh | gsp antag | D2 potentiator
1 | CC(=O)Nc1cccc(NC(=O)CSc2ncc(C(=O)Nc3ccccc3)c(=O)n2C)c1 | -16 | -10% | -7
2 | C=CCN1C(=O)c2ccccc2NC1c1ccc(Br)s1 (stereo not drawn) | 3 | -11% | 4
3 | CCOc1ccccc1N(C)C(=O)c1nn(-c2ccc(OC)cc2OC)c(=O)c2ccccc12 | 2 | -2% | -3
4 | COc1ccc(NC(=O)CSc2c3c(nc4ccccc24)CCC3)c(OC)c1 | -10 | -3% | 0
5 | Cc1cc(C)cc(N2CCN(C(=O)N3CCOCC3)CC2)c1 | 3 | 0% | 17
6 | C[C@H](CO)N1C[C@H](C)[C@H](CN(C)Cc2ccc(Oc3ccccc3)cc2)Oc2cc(Br)ccc2S1(=O)=O | -12 | . | -12
7 | C/C(=N\NC(=O)c1ccco1)c1ccc(NC(=O)c2cccs2)cc1 | -8 | 6% | -5
8 | COc1cccc(NC(=O)CN(C)C(=O)C(CCSC)NC(=O)c2ccco2)c1 (stereo not drawn) | 6 | -5% | -23
9 | COc1ccccc1C1CCN(Cc2cccc3ccccc23)CC1 | 8 | -5% | -11
10 | O=C(COc1ccc2c(c1)CCC2)Nc1ccccn1 | 0 | 4% | -6

cpd | D2 ag | CtBP-E1A blk | gsp ag
1 | -5.2 | 1 | 7%[15.4 µM]
2 | 3.7 | 6 | ?
3 | -0.8 | 1 | 5%
4 | 0.4 | -2 | 2%[15.4 µM]
5 | -0.9 | 6 | -16%
6 | 2.7 | 6 | -29%
7 | -3.8 | -5 | -34%[inhibitor]
8 | -5.4 | 18 | -19%
9 | -0.2 | 10 | -10%[15.4 µM]
10 | -1.9 | -1 | 6%[15.4 µM]

# Among those listed so far, these contain nitrogen in an aromatic ring.
cpd | structure | Six1-Eya2 inh | gsp antag | D2 potentiator
1 | CC(=O)Nc1cccc(NC(=O)CSc2ncc(C(=O)Nc3ccccc3)c(=O)n2C)c1 | -16 | -10% | -7
3 | CCOc1ccccc1N(C)C(=O)c1nn(-c2ccc(OC)cc2OC)c(=O)c2ccccc12 | 2 | -2% | -3
4 | COc1ccc(NC(=O)CSc2c3c(nc4ccccc24)CCC3)c(OC)c1 | -10 | -3% | 0
10 | O=C(COc1ccc2c(c1)CCC2)Nc1ccccn1 | 0 | 4% | -6

cpd | D2 ag | CtBP-E1A blk | gsp ag
1 | -5.2 | 1 | 7%[15.4 µM]
3 | -0.8 | 1 | 5%
4 | 0.4 | -2 | 2%[15.4 µM]
10 | -1.9 | -1 | 6%[15.4 µM]

# (list continues)
cpd | structure | Six1-Eya2 inh | gsp antag | D2 potentiator
11 | COc1ccc(N2CCN(Cc3nc4c(c(=O)n(C)c(=O)n4C)n3CC(C)=O)CC2)cc1 | -1 | -8% | -16
12 | COC(=O)c1ccc(COc2ccccc2/C=C(\C#N)C(=O)Nc2c(C)cccc2C)cc1 | 0 | 13% | 8
13 | COc1cc(OC)c(S(=O)(=O)Nc2ccc(C)cn2)cc1NC(C)=O | 5 | 1% | -11
14 | Cn1c(SCC(=O)Nc2ccc(Br)cc2F)nnc1-c1ccco1 | -1 | -2% | -30
15 | COc1cccc(C(=O)NCC(=O)N/N=C/c2ccc3c(c2)OCO3)c1 | 2 | -3% | -11
16 | CCOC(=O)c1nnn(-c2nn3nnnc3c3ccccc23)c1C | 2 | -8% | -9
17 | COc1ccc(Cl)cc1NC(=O)NC(C)c1ccncc1 (stereo not drawn) | 0 | -3% | -18
18 | O=C([C@H](Cc1ccccc1)N1C(=O)c2ccccc2C1=O)N1CCOCC1 | 5 | -2% | 0
19 | Cc1cccc(C(=O)N2CCN(S(=O)(=O)N3CCCCC3)CC2)c1 | 0 | 9% | -12
20 | COC(=O)c1cccc(NC(=O)c2cccc(OC)c2)c1 | 1 | -17% | -38

cpd | D2 ag | CtBP-E1A blk | gsp ag
11 | 0.3 | 5 | -40%[inhibitor]
12 | 4.3 | 4 | -4%[15.4 µM]
13 | -1.7 | -17 | -33%[inhibitor]
14 | -2.1 | -6 | -4%
15 | -0.5 | -6 | 33%
16 | -0.2 | -3 | -5%
17 | -3.0 | -1 | 8%
18 | -2.2 | 5 | ?
19 | -2.6 | 5 | 1%
20 | -3.1 | -1 | -21%

# Reprinted at random: 2 entries already listed
cpd | structure | Six1-Eya2 inh | gsp antag | D2 potentiator
14 | Cn1c(SCC(=O)Nc2ccc(Br)cc2F)nnc1-c1ccco1 | -1 | -2% | -30
11 | COc1ccc(N2CCN(Cc3nc4c(c(=O)n(C)c(=O)n4C)n3CC(C)=O)CC2)cc1 | -1 | -8% | -16

cpd | D2 ag | CtBP-E1A blk | gsp ag
14 | -2.1 | -6 | -4%
11 | 0.3 | 5 | -40%[inhibitor]

# Five neighbouring entries out of the list so far:
cpd | structure | Six1-Eya2 inh | gsp antag | D2 potentiator
12 | COC(=O)c1ccc(COc2ccccc2/C=C(\C#N)C(=O)Nc2c(C)cccc2C)cc1 | 0 | 13% | 8
13 | COc1cc(OC)c(S(=O)(=O)Nc2ccc(C)cn2)cc1NC(C)=O | 5 | 1% | -11
14 | Cn1c(SCC(=O)Nc2ccc(Br)cc2F)nnc1-c1ccco1 | -1 | -2% | -30
15 | COc1cccc(C(=O)NCC(=O)N/N=C/c2ccc3c(c2)OCO3)c1 | 2 | -3% | -11
16 | CCOC(=O)c1nnn(-c2nn3nnnc3c3ccccc23)c1C | 2 | -8% | -9

cpd | D2 ag | CtBP-E1A blk | gsp ag
12 | 4.3 | 4 | -4%[15.4 µM]
13 | -1.7 | -17 | -33%[inhibitor]
14 | -2.1 | -6 | -4%
15 | -0.5 | -6 | 33%
16 | -0.2 | -3 | -5%

# Next section:
cpd | structure | Six1-Eya2 inh | gsp antag | D2 potentiator
21 | Cc1cc(NC(=O)CSc2ccc3nnc(-c4ccccn4)n3n2)no1 | ? | 6% | -2
22 | COc1cc(NC(=S)N2CCCC(C)C2)c(OC)cc1Cl (stereo not drawn) | 7 | . | -3
23 | CC(=O)N1CCN(C(=O)c2ccc(S(=O)(=O)Nc3ccccc3C)cc2)CC1 | 1 | 2% | -4
24 | COc1ccc(N(CC(=O)NCCSc2ccccn2)S(=O)(=O)c2ccccc2)cc1OC | 5 | 7% | -11
25 | COc1ccccc1OCC(=O)NCCCN1CCOCC1 | 14 | 1% | -11
26 | CCC(=O)N1CCc2cc(S(=O)(=O)CCC(=O)Nc3ccc(C(C)=O)cc3)ccc21 | 5 | -7% | 1
27 | CCc1ccc(NC(=O)Cn2cc([N+](=O)[O-])nc2C)cc1 | 8 | 8% | -3
28 | C1CCCC(NC2=NCCO2)CCC1 | 5 | 10% | 10
29 | O=Nc1c(O)[nH]c2ccc(Cl)cc12 | -4 | 10% | -3
30 | CCCCNC(=O)C1Cc2cc(S(=O)(=O)N3CCCC3)ccc2N1C(C)=O (stereo not drawn) | 2 | -4% | -4

cpd | D2 ag | CtBP-E1A blk | gsp ag
21 | -1.4 | ? | 6.3µM*
22 | -2.7 | -14 | -1%[15.4 µM]
23 | -3.5 | 0 | 6%[15.4 µM]
24 | -0.9 | -11 | -7%[15.4 µM]
25 | -3.1 | -13 | 6%[15.4 µM]
26 | 1.9 | -12 | -4%
27 | -0.2 | -5 | -9%
28 | 1.1 | . | -31%[inhibitor]
29 | -4.9 | 1 | ?
30 | 2.4 | 3 | 23%

# Further records follow:
cpd | structure | Six1-Eya2 inh | gsp antag | D2 potentiator
31 | NC(=O)C1CCN(C(=O)c2cc3c(s2)CCCCC3)CC1 | -1 | 10% | -1
32 | CC(=O)Nc1ccc2nsnc2c1 | -3 | 5% | -11
33 | COc1ccc(CN(Cc2cccn2C)C(=O)c2cc3cc(OC)ccc3[nH]2)cc1 | -27 | -10% | -8
34 | Cc1nn(CC(=O)NC(C)c2ccccc2)c(C)c1[N+](=O)[O-] (stereo not drawn) | -17 | 11% | -9
35 | CCCCCCSc1nnc2[nH]c(=O)cc(N)n12 | -15 | 10% | -22

cpd | D2 ag | CtBP-E1A blk | gsp ag
31 | -4.1 | -1 | 1%
32 | -3.3 | . | 6%
33 | -5.5 | -14 | 9%[15.4 µM]
34 | -4.0 | 8 | -1%[15.4 µM]
35 | -1.2 | -12 | -7%

# Source: PubChem BioAssay (National Center for Advancing Translational Sciences (NCATS))
